From PubChem
Beta apoptosis: blocks beta cell apoptosis; protection from apoptosis, % (test concentration not listed); hit rate 0.8% among 300,000; INS-1E cytokine-induced death, ATP luminescence, 48 h; percent of positive-control rescue, neutral wells zero;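 active = all replicates at 75% or more, or half of them and the mean; inconclusive = half reach 75% but not the mean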;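 note: 0% = cytokine-treated negative control wells and 100% = positive control rescue; higher means more ATP so stronger rescue from cytokine killing; wells of about 40 µL received 100 nL stock; the first replicate is given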
T cruzi repl: T. cruzi replication inhibition; hit rate 1.4% among 300,000; inhibition, % (no concentration beside the values); T. cruzi beta-gal in NIH3T3, luminescence, 90 h;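 active = mean inhibition across valid replicates above about 55%, limit read from the data; inconclusive = mean below that limit but half or more replicates reach it; inactive = mean below it, under half of replicates reach it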;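 note: signal also drops with host cell toxicity which is not excluded here; 0% = plate median of DMSO wells and 100% = zero luminescence signal; higher percent means less beta-gal luminescence so fewer parasites; stock transfer was 50 nL into about 50 µL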
B2AR ag: activates human beta-2 adrenergic receptor causing internalization. P07550. response, % (test concentration not listed). Am2.2-beta2AR cells, FAP receptor internalization, flow cytometry; reference of the scale not given here. hit rate 0.43% among 340,000;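 active = response above a set limit, near 3 SD of response in nonfluorescent compounds, cut at about 42% in these data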;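 note: stock transfer was 100 nL into about 11 µL; a reference agonist was the positive control; negative values mostly stem from fluorescent compounds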
Target sequence (P07550 whole entry, looked up): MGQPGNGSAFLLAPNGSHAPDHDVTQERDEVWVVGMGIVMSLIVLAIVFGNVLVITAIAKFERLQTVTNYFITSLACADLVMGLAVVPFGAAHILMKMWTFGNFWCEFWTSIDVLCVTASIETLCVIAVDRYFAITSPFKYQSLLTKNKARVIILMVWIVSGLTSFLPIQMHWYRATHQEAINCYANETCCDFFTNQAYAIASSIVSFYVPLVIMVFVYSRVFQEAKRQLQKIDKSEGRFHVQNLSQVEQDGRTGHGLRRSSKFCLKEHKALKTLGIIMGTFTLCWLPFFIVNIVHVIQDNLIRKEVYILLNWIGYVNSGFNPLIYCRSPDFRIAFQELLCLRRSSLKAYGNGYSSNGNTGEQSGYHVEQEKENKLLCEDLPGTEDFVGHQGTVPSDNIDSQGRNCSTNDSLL
Bfl-1 A1 inh: inhibitors of the anti-apoptotic protein A1, read as caspase activation; hit rate 0.066% among 330,000; caspase activation, % (no concentration beside the values); MEF A1-2A-BIM cells, Caspase-Glo 3/7 luminescence, 3 h; percent of clofoctol response, vehicle zero;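 active = over half of replicate activation scores above 10%, or exactly half above 10 with the replicate mean above 10; inconclusive = replicate mean below 10 yet half the replicates above 10; inactive = over half of replicates below 10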;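 note: wells of about 30 µL received 50 nL stock; many hits fall short of the cut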
rRNA inh HTS: inhibitors of bacterial rRNA selective over humanized ribosomes | E. coli WT GFP vs humanized-ribosome RFP mutants, fluorescence, 24 h; active compounds read low; DMSO median 0, no signal -100 | hit rate 1.6% among 350,000 | GFP signal change (wild-type ribosome), % (no concentration beside the values);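 active = significant combined selectivity score with lowered wild-type GFP, culture density cut under 30%, mutant RFP and density less affected; inactive = any of these conditions unmet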; note: one replicate is shown; some compounds called inactive have numbers as strong as hits
ALR H2O2 inh: human ALR oxidase inhibition via reduced H2O2. P55789. purified ALR, DTT oxidation, H2O2 HRP-luminol luminescence. inhibition, % (concentration not given with the values). hit rate 3.8% among 290,000;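 active = mean and each replicate at 75% or more; inconclusive = only one of the two met; inactive = neither met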;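 note: stock transfer was 7.5 nL into about 7.5 µL; 0% = neutral wells and 100% = wells with inactivated enzyme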
Target sequence (P55789 whole entry, looked up): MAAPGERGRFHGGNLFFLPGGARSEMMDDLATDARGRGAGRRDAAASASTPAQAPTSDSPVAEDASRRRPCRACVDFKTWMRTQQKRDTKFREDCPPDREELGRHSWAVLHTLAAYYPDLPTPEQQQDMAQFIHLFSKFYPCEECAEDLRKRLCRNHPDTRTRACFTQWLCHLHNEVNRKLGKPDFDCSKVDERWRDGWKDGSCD
LANA-H2A inh: blocks KSHV LANA binding to histone H2A/H2B. Q9QR71. inhibition, % (test concentration not listed). cell-free LANA-H2A/H2B peptide, fluorescence polarization. hit rate 0.6% among 320,000; in the data active = inhibition mostly above about 10%, no sharp cut-off; inactive = mostly below about 6.7%;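 note: stock transfer was 7.5 nL into about 10 µL; 0% = median of vehicle wells and 100% = median of positive control wells; one replicate is shown; the record names a cut of 25% in any replicate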
Calb FLC: affects C. albicans growth with fluconazole. C. albicans CaCi-2 (fluconazole-resistant clinical isolate) + fluconazole, Alamar Blue growth, 48 h. growth inhibition, % (concentration not given with the values). hit rate 0.57% among 300,000;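 active = most replicates above 75%; inconclusive = exactly half above 75%; inactive = most below 75%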;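 note: all wells also contain fluconazole at 8 µg/ml as a sub-toxic cotreatment; 0% = median of DMSO wells and 100% = median of geldanamycin control wells; wells of about 8 µL received 7.5 nL stock; the first replicate is given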
rRNA inh HTS OD600: further read-out of rRNA inh HTS, marked with its call; OD600 change, %; measured here: OD600 growth;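 optical density of the mix in the first replicate; 0 = DMSO median and -100 = no signal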
rRNA inh HTS RFP: also measured in rRNA inh HTS; calls as there; RFP signal change, %; measured here: RFP humanized mutant strains;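 first replicate; 0 = DMSO median and -100 = no signal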
Numbers without * were called inactive; u = inconclusive; x = not tested or not shown.

Every second line gives: Bfl-1 A1 inh	rRNA inh HTS RFP	T cruzi repl	B2AR ag	ALR H2O2 inh	Beta apoptosis	rRNA inh HTS	rRNA inh HTS OD600	Calb FLC	LANA-H2A inh
CCc1nn(CC(=O)NCCN2CCN(C)CC2)c(=O)c2cc3c(OC)cccc3n12
 : 0.2	8.1	18.9	-3.3	-3.1	-0.9	12.1	9.1	-3.8	-1.8
O=C1NC2(CCCc3ccccc32)C(=O)N1CCOc1ccc(Br)cc1 (stereo unspecified)
 : -0.2	x	-4.5	-1.7	-0.5	-1.3	x	x	2.2	-0.5
Nc1cccc(-c2ccc(CO)o2)c1
 : -0.3	3.5	-5.6	2.3	x	-1.6	18.8	16.9	14.7	-4.6
CCOC(=O)c1cccc(NC2c3ccccc3C(=O)N2Cc2ccco2)c1 (stereo unspecified)
 : -1.1	-7.8	1.2	5.3	12.3	17.8	-44.5	-67.8	16.9	4.2
COc1cccc(-c2cc(C(=O)O)[nH]n2)c1
 : -0.7	x	-16.8	0.2	0.5	0.0	x	x	-0.6	3.1
CC1CCCN(S(=O)(=O)c2ccc3c(c2)n(C)c(=O)c(=O)n3C)C1 (stereo unspecified)
 : -0.2	-2.8	3.1	4.8	-2.3	0.9	9.2	5.7	2.5	-3.6
O=C(NCC1CCCO1)c1cc2ccccc2o1 (stereo unspecified)
 : -0.2	-0.3	-29.4	-2.7	-2.8	1.5	7.8	5.3	-18.1	-3.0
COc1ccc(NS(=O)(=O)c2ccc(C)c(C(=O)NCC(c3cccs3)N3CCOCC3)c2)cc1 (stereo unspecified)
 : -0.1	-0.4	20.6	-6.5	-1.2	2.1	-3.0	-6.2	-3.8	-1.3
CC(C)(C)OC(=O)N1CCC[C@H]1C(=O)N/N=C/c1ccc2nccnc2c1
 : -0.1	-1.5	-5.2	2.9	-2.6	2.7	0.2	-0.1	-9.4	-4.0
Cc1ccc(-n2ncc3c(=O)[nH]c(SCC(=O)N4CCCC4)nc32)cc1C
 : 0.6	2.4	14.2	-5.7	-12.9	x	14.2	9.2	1.4	-2.5
O=C(CN1CCN(S(=O)(=O)c2ccc3ccccc3c2)CC1)NC(=O)NC1CCCCC1
 : -1.3	x	25.6	11.7	-0.5	x	x	x	-1.6	-9.0
COc1ccccc1N1CCN(C(=O)c2ccc3[nH]c4c(c3c2)CC(C)CC4)CC1 (stereo unspecified)
 : 0.0	2.6	57.0*	5.5	-6.8	-3.7	-11.8	-17.6	21.8	2.5
COc1ccc(Cl)cc1C(=O)NNC(=O)CSc1nncn1C
 : 0.0	1.5	x	-10.9	-8.8	-6.0	7.4	9.2	x	2.4
CN1CCN(c2ccc(C(=O)c3cn(-c4ccc(F)c(Cl)c4)nn3)cc2)CC1
 : 0.7	1.3	29.5	8.5	-7.2	-1.4	9.6	9.1	27.7	0.1
Cc1nn(-c2ccccc2)c(C)c1/C=N/NC(=O)c1cc(C(C)(C)C)[nH]n1
 : -1.0	x	12.3	0.1	6.7	-5.7	x	x	-9.5	1.2
COc1ccc2oc(=O)c(C(=O)NCCc3ccc(OC)c(OC)c3)cc2c1
 : 0.5	-1.2	-5.0	-2.1	-22.6	-6.6	8.0	-0.6	0.3	12.1*
CCc1cccc(OCC(O)Cn2c(N3CCCCC3)nc3c2c(=O)[nH]c(=O)n3C)c1 (stereo unspecified)
 : 0.6	-2.5	-0.5	-1.2	-7.9	1.7	-1.2	0.1	34.5	-2.6
COC(=O)c1ccc(C)c(NC(=O)CSc2sc3c(O)cc(=O)[nH]c3c2C#N)c1
 : 0.3	4.7	-4.3	5.7	u	-3.2	-5.4	0.6	-10.1	2.1
O=c1c(Cc2ccc(Cl)cc2)c(O)ccn1Cc1cccs1
 : 0.9	0.5	-9.3	5.1	-20.4	0.6	0.2	2.0	2.6	3.1
COc1cc(/C=N/NC(=O)c2cc(-c3ccccc3C)nc3ccccc23)cc(OC)c1O
 : -0.4	-0.6	-21.0	9.9	-3.1	34.2	14.5	9.2	32.7	0.2
CCOC(=O)Cn1c(-c2cccnc2)nc(-c2ccccc2)c1-c1ccccc1
 : 0.6	4.6	28.3	2.2	-2.2	-0.9	-2.9	0.7	-6.2	1.3
Cc1ccc(C2=NN(CCC(=O)NCc3ccc4c(c3)OCO4)C(=O)CC2)cc1
 : 1.6	x	5.2	-11.1	-20.1	-6.7	x	x	22.5	1.1
COC(=O)Cc1csc(Nc2ccc(Cl)cc2)n1
 : 2.6	x	9.9	8.0	66.9	-7.6	x	x	u	4.2
S=C(c1ccc(N2CCOCC2)cc1)N1CCCCC1
 : -0.5	x	0.5	1.1	86.7*	1.6	x	x	-1.0	-0.1
CCCC1CCC(C(=O)Nn2c(C)nc3ccccc3c2=O)CC1 (stereo unspecified)
 : 0.5	-1.1	-6.0	8.0	-1.5	0.3	1.0	5.4	-11.9	3.7
O=C(CSc1nnc(-c2ccc(S(=O)(=O)N3CCOCC3)cc2)o1)c1ccccc1F
 : -0.4	x	-7.3	8.9	-3.4	2.9	x	x	4.2	-6.8
COC(=O)c1ccc(Cl)c(NC(=O)CN(c2ccc(OC)cc2)S(=O)(=O)c2ccccc2)c1
 : 0.0	x	35.4	5.4	x	8.8	x	x	-1.9	-4.8
COc1cc2[nH]c(=S)n(CC3CCCO3)c(=O)c2cc1OC (stereo unspecified)
 : -0.8	-1.7	-1.6	10.7	48.7	-1.3	1.4	-9.2	-27.8	6.6
CC(=O)c1cccc(NC(=S)N2CCC(Cc3ccccc3)CC2)c1
 : -0.1	-1.1	-6.0	-3.8	2.1	2.1	-19.9	-21.9	-11.3	-1.2
Cc1ccccc1N(C)C(=O)c1coc(=O)c2ccccc12
 : -0.1	x	-7.2	3.0	-11.3	-3.0	x	x	3.8	-2.0
CCOc1ccc(NC(=O)COC(=O)CC2CCCCC2)cc1
 : 1.1	-0.2	x	-6.7	2.9	-3.5	-8.7	-15.4	x	-1.5
O=C(O)c1cc(S(=O)(=O)Nc2ccc3cn[nH]c3c2)ccc1O
 : -0.2	-1.4	x	-1.3	4.0	-5.7	2.3	5.9	x	5.9
COc1ccccc1CNC(=O)Cn1nc(C)c([N+](=O)[O-])c1C
 : 0.0	2.1	2.7	-3.0	-3.4	x	22.8	6.6	0.9	1.6
O=[N+]([O-])c1ccccc1/C=N/Nc1nc(N2CCCC2)nc(N2CCCC2)n1
 : 0.2	-4.6*	9.9	-0.7	u	-5.3	-12.4*	9.9*	-3.5	-4.1
COC(=O)c1c(NC(=O)CCC(=O)O)sc(Cc2ccccc2)c1C
 : 0.3	1.5*	-9.9	10.4	x	-1.2	-37.8*	-6.1*	-2.7	-3.4
O=C(OCCc1cc2ccccc2c(=O)o1)c1ccc(F)cc1
 : -0.4	-14.9	x	-5.8	-3.7	-3.0	-18.0	-27.6	x	-0.6
NS(=O)(=O)c1ccc(CNC(=O)C(c2ccccc2)c2ccccc2)cc1
 : 0.5	-7.5	-7.1	-1.5	21.8	-2.1	-12.2	-4.5	11.3	-4.2
O=C(NC(=S)Nc1ccccc1[N+](=O)[O-])c1cncc(Br)c1
 : 0.8	-0.4	-2.1	2.1	1.5	x	6.5	3.9	-8.3	1.4
CC(C)c1c(O)c2c(n(-c3ccccc3)c1=O)CCCC2
 : -1.0	x	-3.8	-4.0	x	-4.3	x	x	11.1	x
Cc1cc(C)cc(OCC(=O)Nc2ccc3c(c2)OCO3)c1
 : 0.7	0.9	-12.6	1.4	-8.4	7.0	4.1	8.0	-30.6	-0.6
CN(C)c1ccc(S(=O)(=O)N2CCCCC2)cc1NC(=O)C1=COCCO1
 : -1.0	-3.3	10.3	9.7	-7.8	2.9	10.0	-2.2	-0.6	-2.1
Cc1ccc(C(=O)N/C(=C/c2ccco2)C(=O)NCCc2c[nH]c3ccccc23)cc1C
 : 0.1	x	25.6	-4.2	7.0	7.2	x	x	18.6	1.8
CCN1C(=O)[C@@H]2[C@@H](c3ccc(-c4ccc(C(C)=O)cc4)c(OC)c3)N3CCC[C@@]3(C(=O)OC)[C@@H]2C1=O
 : -0.4	-2.2	x	-2.2	-0.3	-1.1	-3.4	-5.8	x	-1.2
COc1ccc(-c2cc(=O)oc3cc(OCC(=O)NCc4ccccn4)ccc23)cc1
 : -0.9	x	-3.6	-16.1	x	-3.0	x	x	0.6	-2.7
O=C1CN(C(=O)COC(=O)c2cccc(Br)c2)c2ccccc2N1
 : -0.2	5.3	x	-0.9	-3.3	0.1	3.2	17.7	x	0.2
O=C(NCc1ccccc1)c1ccc(NS(=O)(=O)c2cccs2)cc1
 : 0.0	7.3	x	-2.4	1.9	-0.2	0.7	1.5	x	-2.0
COc1ccc(CN2CC(=O)N(c3cc(Cl)ccc3OC)C2=S)cc1OC
 : 0.7	3.1	-2.6	3.4	7.7	-3.5	-11.2	-6.2	4.0	-6.5
O=C(CSc1cccc2cccnc12)N/N=C/c1ccncc1
 : 2.9	1.3	x	2.2	-5.2	-2.5	-8.9	-8.1	26.3	0.1
CCCCCCCCNc1nc(Cl)nc(NCc2ccco2)n1
 : -0.4	x	-17.8	-4.5	x	-1.2	x	x	-3.4	x
O=C(Nc1ccc(S(=O)(=O)N2CCOCC2)cc1)C1CC1
 : 0.9	-2.2	-3.7	9.9	x	-4.8	-3.3	3.7	5.2	0.4
Cc1nn(Cc2ccccc2Cl)c(C)c1N
 : 0.5	x	-1.1	-2.8	11.7	-1.3	x	x	-1.7	4.7
Cc1cccc(Nc2nc(-c3ccc(O)cc3O)cs2)n1
 : -0.6	2.8	-15.2	1.6	96.8*	-0.6	-31.4	-26.7	3.7	-2.1

Not all compounds are listed. The share of hits here may be higher or lower than overall.
